Screening data from PubChem.
Vif A3G = inhibitors of Vif binding to APOBEC3G peptide, primary screen, biochemical, TR-FRET, GST-Vif 1-94, biotin-A3G peptide, dose response retest (AID 1117319); 0.57% of 260,000 active; inhibition, %; hits with a dose series show IC50 in µM; TR-FRET GST-Vif / biotin-A3G peptide binding; higher % means a stronger effect; test concentration not given here; strong numbers were not always called active; Virion infectivity factor (Human immunodeficiency virus type 1 group M subtype B (isolate …;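 active means above the screen mean plus three standard deviations and confirmed in dose response; inconclusive means results disagree or hit not tested in dose response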;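 further: Vif residues 1-94 fused to GST binding biotinylated APOBEC3G peptide 110-148; 0% = full assay without inhibitor and 100% = GST in place of GST-Vif; retest series ran down from 100 µM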
rRNA inh HTS = reduced GFP signal of wild-type E. coli, primary screen, bacterial rRNA inhibitor project, GFP/RFP fluorescence, OD600, single point; E. coli WT GFP vs humanized-ribosome RFP mutants, 24 h; stronger effect = lower value; DMSO median 0, no signal -100; GFP signal change (wild-type ribosome), % (test concentration not listed); 1.6% of 350,000 active;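 active means significant combined selectivity score with lowered wild-type GFP, culture density cut under 30%, mutant RFP and density less affected; inactive means any of these conditions unmet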; further: one replicate is shown; some compounds called inactive have numbers as strong as hits
MLL AF4-AF9 inh = inhibitors of AF4 peptide binding to AF9, primary screen, biochemical, AlphaScreen, biotin-AF4 peptide, FLAG-AF9, single point | inhibition, % at 10 µM | AID 651704, 2012 | 0.47% of 350,000 active | Protein AF-9 (Homo sapiens), P42568;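 active means every replicate reaching a set inhibition limit, whatever the replicate mean, cut at about 25% in these data; inconclusive means mean inhibition reaches that limit but some replicates miss it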;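 further: 0% = plate neutral control median and 100% = total signal loss; the record names both 10 and 1 µM as test concentration; the first replicate is given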
FGF22 binding = binders of human FGF22 protein, primary screen, FGF22 synaptogenesis inhibitor project, biophysical, thermal shift, single point | calls only at 9.99 µM | recombinant FGF22 thermal shift, SYPRO orange fluorescence; percent of sucrose octasulfate shift, DMSO zero | 1.5% of 340,000 active | AID 651658, 2012;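 active means melting point raised past a set limit in the mean and every replicate; inconclusive means no clear call; three in four hits are not shown here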
Target sequence (Q9HCT0 whole entry, looked up): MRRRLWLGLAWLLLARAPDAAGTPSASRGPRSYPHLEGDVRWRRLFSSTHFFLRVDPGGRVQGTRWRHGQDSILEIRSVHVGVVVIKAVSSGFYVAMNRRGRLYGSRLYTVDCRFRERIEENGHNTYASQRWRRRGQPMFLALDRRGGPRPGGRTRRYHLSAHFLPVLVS
ALR H2O2 inh = inhibitors of human ALR sulfhydryl oxidase, primary screen, biochemical, H2O2 detection, HRP-luminol luminescence, single point; AID 485317, 2010; inhibition, % (no concentration beside the values); purified ALR, DTT oxidation; FAD-linked sulfhydryl oxidase ALR (Homo sapiens), P55789; 3.8% of 290,000 active;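 active means mean and each replicate at 75% or more; inconclusive means only one of the two met; inactive means neither met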;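 further: stock transfer was 7.5 nL into about 7.5 µL; 0% = neutral wells and 100% = wells with inactivated enzyme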
Target sequence (P55789 whole entry, looked up): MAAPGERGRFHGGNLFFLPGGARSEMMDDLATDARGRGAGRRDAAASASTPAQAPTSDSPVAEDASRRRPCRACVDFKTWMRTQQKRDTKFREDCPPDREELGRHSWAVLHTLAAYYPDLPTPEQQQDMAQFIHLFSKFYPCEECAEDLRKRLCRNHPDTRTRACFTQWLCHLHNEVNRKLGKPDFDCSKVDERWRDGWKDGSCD
E coli growth = E. coli growth inhibition, primary screen, OD600. Escherichia coli growth, 23 h; stronger effect = lower value. OD600 absorbance (test concentration not listed). 0.21% of 330,000 active. AID 1053175, 2014;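 active means OD600 absorbance below the run mean of sample wells minus 3.6 SD, in any replicate, cut at about 0.56 in these data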;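 further: stock transfer was 300 nL into about 60 µL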
HNF4A DNA FP = change in binding of human HNF4A to DNA, primary screen, biochemical, fluorescence polarization, FITC-DNA; activity change, % at 10 µM; 0.3% of 360,000 active; 1 h; Hepatocyte nuclear factor 4-alpha (Homo sapiens), P41235; in the data active means activity change above about 30%, passing the limit was not always enough;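 further: controls were the assay level and a saturating level of protein; the project sought stronger binding though the title names inhibitors; some compounds called inactive have numbers as strong as hits; positive values seem to mean higher polarization but the record does not say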
Target sequence (P41235 whole entry, looked up): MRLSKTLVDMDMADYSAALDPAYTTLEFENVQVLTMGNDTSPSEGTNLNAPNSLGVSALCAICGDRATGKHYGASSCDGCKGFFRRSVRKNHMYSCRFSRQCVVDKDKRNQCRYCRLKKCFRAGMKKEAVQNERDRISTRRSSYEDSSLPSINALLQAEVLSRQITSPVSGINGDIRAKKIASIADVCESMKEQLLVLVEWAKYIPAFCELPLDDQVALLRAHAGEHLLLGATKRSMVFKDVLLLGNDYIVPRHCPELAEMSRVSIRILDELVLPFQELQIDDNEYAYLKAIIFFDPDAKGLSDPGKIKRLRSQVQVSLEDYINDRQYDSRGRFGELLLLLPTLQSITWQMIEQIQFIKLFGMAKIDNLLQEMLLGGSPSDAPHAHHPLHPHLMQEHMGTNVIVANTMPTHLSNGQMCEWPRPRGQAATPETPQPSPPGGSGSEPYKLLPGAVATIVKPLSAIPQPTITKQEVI
rRNA inh HTS OD600 = also measured in rRNA inh HTS; calls as there; OD600 change, %; measured here: OD600 growth;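 optical density of the mix in the first replicate; 0 = DMSO median and -100 = no signal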
rRNA inh HTS RFP = further read-out of rRNA inh HTS, marked with its call; RFP signal change, %; measured here: RFP humanized mutant strains;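 first replicate; 0 = DMSO median and -100 = no signal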
An asterisk follows results filed as active; i = inactive; ? = inconclusive; nt = no result given; + = active, no number; & = joins results of further samples.

The line under a structure holds: FGF22 binding	MLL AF4-AF9 inh	Vif A3G	rRNA inh HTS RFP	HNF4A DNA FP	rRNA inh HTS OD600	ALR H2O2 inh	rRNA inh HTS	E coli growth
Cc1ccc(-c2cnc3n2CCCCC3)cc1
 : i	-0.3	3%	1.9	-5.7	11	2	9	0.64
O=S(=O)(c1ccccc1)N1CCCCN2[C@@H](CO)[C@@H](c3ccc(-c4ccccc4)cc3)[C@@H]2C1
 : i	0.2	nt	-13	nt	-71	nt	-58	nt
Cc1ccccc1CSCCNS(C)(=O)=O
 : nt	nt	7%	nt	3.3	nt	30	nt	0.71
CCCCn1c(N)c(N(Cc2ccccc2OC)C(=O)CC2OC(=O)c3ccccc32)c(=O)[nH]c1=O (stereo not drawn)
 : i	-8.1	-4%	2.4	0.3	10	-5	3	0.71
Cc1ccc(S(=O)(=O)N[C@@H]2CC[C@@H](CCn3cc(C4CC4)nn3)O[C@@H]2CO)cc1
 : i	1.4	nt	-2.0	nt	0	nt	-2	nt
COCCNC(=O)C[C@@H]1CC[C@H]2[C@H](COc3ccc(NC(=O)COC)cc3C(=O)N2C)O1
 : i	-1.3	nt	-2.1	nt	1	nt	0	nt
CC(=O)N1CCOc2ccc(S(=O)(=O)N3CCC(C(=O)Nc4ccc(C)c(C)c4)CC3)cc21
 : i	1.2	nt	5.1	1.8	-12	-3	-6	0.72
COc1cnc(-c2ccccc2)nc1Oc1cccc(C)c1C
 : nt	nt	1%	nt	2.7	nt	-9	nt	0.76
CC(C)(Cc1cccc(CC(C)(C)C(=O)O)c1)C(=O)O
 : +	-3.2	nt	0.9&-1.1	0.8	-1&6	9	5&-1	0.7
CCCc1nn2c(=O)cc(COc3cccc(NC(=O)c4ccco4)c3)nc2s1
 : i	1.1	-7%	-0.7	0.1	4	5	5	0.71
O=C(O)c1cccc(NC(=O)c2cn(-c3ccccc3)nc2-c2cccc(Br)c2)c1
 : i	0.4	nt	-10	-5.5	-53	11	-39	0.68
COc1cccc(NC(=O)c2cc(-c3cccnc3)nc3c(Cl)cccc23)c1
 : nt	nt	14%	nt	0.7	nt	-2	nt	0.78
CCCCn1c(SCC(=O)Nc2cc(C)on2)nc2c1c(=O)n(C)c(=O)n2C
 : nt	nt	0%	nt	3.2	nt	-5	nt	0.77
O=C(Cn1ccc(NC(=O)OCc2ccccc2)nc1=O)NCCCn1ccnc1
 : i	nt	nt	0.0	3.5	8	2	2	0.67
COc1cc(Cl)c(C)cc1NC(=O)CSc1nnc(-c2cccnc2)n1Cc1ccco1
 : nt	nt	6%	nt	-6.1	nt	20	nt	0.74
CC(=O)OCc1c(C)cc(C)c(/C=C(/C#N)C(N)=O)c1C
 : i	-0.4	9%	-2.1	-2.1	-2	1	0	0.7
Cc1ccccc1OCCOC(=O)c1nc2nccc(C)n2n1
 : i	-1.3	0%	-1.4	3.1	-5	-15	6	0.71
CCc1ccccc1NC(=O)NC(C)c1ccc2c(c1)OCO2 (stereo not drawn)
 : i	-1.8	nt	3.5	-0.7	21	20	17	0.73
O=C(O)CSc1nnc(-c2cccc(S(=O)(=O)N3CCOCC3)c2)n1-c1cccc(Cl)c1
 : i	1.1	nt	1.7	-0.9	4	nt	10	0.67
C[C@H](CO)N1C[C@H](C)[C@H](CN(C)CC2CCCCC2)Oc2c(NS(C)(=O)=O)cccc2C1=O
 : i	-7.2	nt	1.4	nt	6	nt	7	nt
COc1cccc(CN2CC(C(=O)NCCCc3ccc(C)cc3)CCC2=O)c1 (stereo not drawn)
 : i	2.5	nt	-6.2	3.2	-12	-1	-11	0.68
N#CC1=C(N)N(c2ccccc2)C2=C(C(=O)CCC2)C1c1ccsc1 (stereo not drawn)
 : nt	nt	?	nt	-1.6	nt	nt	nt	0.68
COc1ccc(OCc2nc3ccc(S(=O)(=O)Nc4ccccc4Cl)cc3[nH]2)cc1
 : i	-8.6	13%	-0.1	2.1	3	-5	1	0.68
COc1ccc(-c2nc3n(c(=O)c2C#N)CCS3)cc1OC
 : i	-0.5	nt	0.9	-1.2	0	-6	9	0.65
CC(=O)Nc1ccc2c(c1)CCCC2=O
 : i	nt	31%	-1.4	-1.4	5	-23	18	0.63
CCOC(=O)c1c(NC(=O)c2ccoc2C)sc2c1CCC2
 : nt	nt	2%	nt	-2.5	nt	2	nt	0.68
CC(NC(=O)Cn1c(=O)oc2cc(S(=O)(=O)N3CCCC3)ccc21)c1ccccc1 (stereo not drawn)
 : i	4.7	4%	0.9	2.5	10	nt	10	0.71
Cc1ccn(-c2n[nH]c(C)c2[N+](=O)[O-])n1
 : i	-0.3	nt	0.9	2.1	25	-6	14	0.64
O=C(CNc1ccc(F)cc1)N/N=C1\CCCc2ccccc21
 : i	2.6	-1%	2.0	0.1	11	1	17	nt
CC(C)N=C1CC(C)(C)CC(=O)/C1=C(/O)CCCN1C(=O)c2ccccc2C1=O
 : i	-0.4	-3%	5.4	2.5	9	24	3	nt

Limited to Vif A3G and ALR H2O2 inh, for some of the entries so far:
compound	Vif A3G	ALR H2O2 inh
Cc1ccccc1OCCOC(=O)c1nc2nccc(C)n2n1	0%	-15
CCc1ccccc1NC(=O)NC(C)c1ccc2c(c1)OCO2 (stereo not drawn)	nt	20

(listing goes on)
The line under a structure holds: FGF22 binding	MLL AF4-AF9 inh	Vif A3G	rRNA inh HTS RFP	HNF4A DNA FP	rRNA inh HTS OD600	ALR H2O2 inh	rRNA inh HTS	E coli growth
O=C1C2C3C=CC(C4CC34)C2C(=O)N1c1cc(Cl)ccn1 (stereo not drawn)
 : i	-0.7	13%	nt	0.3	nt	-6	nt	0.64
CC1(C)Oc2ccc(C(=O)Nc3ccccc3)cc2N(CC#N)C1=O
 : i	-1.9	nt	-9.8	-4.3	-42	0	-30	0.67
CCOC(=O)Cc1nnc(NC(=O)C(CC)Sc2nc(C)cc(=O)[nH]2)s1 (stereo not drawn)
 : i	-7.0	2%	0.3	0.9	2	6	-2	0.69
Cc1cc(C)cc(NC(=O)Nc2ccc(S(=O)(=O)Nc3cc(C)on3)cc2)c1
 : nt	nt	0%	nt	1.4	nt	nt	nt	0.66
O=C(O)c1cc2[nH]c3c(c2cc1Cl)CCCC3
 : i	-8.0	1%	6.7	-1.9	-5	-9	-2	nt
Cc1ccc(S(=O)(=O)N2[C@@H](Cc3ccccc3)CO[C@H]2CC(=O)c2ccccc2)cc1
 : i	-2.0	nt	0.3	-2.2	19	nt	14	nt
C[C@@H](NC(=O)[C@@H]1[C@@H](CO)[C@@H]2Cn3c(ccc(-c4ccccc4F)c3=O)[C@H]1N2)c1ccccc1
 : i	-1.5	nt	0.1	nt	8	nt	-1	nt
COc1ccccc1C(=O)OCC#CCSc1nnc(-c2cccc3ccccc23)o1
 : i	-16	nt	7.6	-2.2	-2	1	8	0.7
COc1ccc(C#Cc2cnc3c(c2)C(=O)N([C@@H](C)CO)C[C@H](C)[C@@H](CN(C)CC2CCOCC2)O3)cc1
 : i	2.3	nt	-0.7	nt	-3	nt	7	nt
COc1ccc(CC(=O)NNC(=O)[C@@H]2CCCC[C@@H]2C(=O)O)cc1
 : i	-1.5	3%	1.6	3.2	7	0	0	0.72
C[C@H](CO)N1C[C@H](C)[C@@H](CN(C)Cc2ccccc2)Oc2ccc(NS(=O)(=O)c3ccc(Cl)cc3)cc2C1=O
 : i	3.0	nt	5.3	nt	-1	nt	0	nt
CC(=O)N(Cc1cccs1)C1CCOC(C)(C)C1 (stereo not drawn)
 : nt	nt	4%	nt	-2.9	nt	-1	nt	0.74
NC(=O)C1CCN(C(=O)CCC(=O)c2ccc(Br)cc2)CC1
 : i	-7.2	-1%	nt	0.2	nt	-8	nt	0.76
O=C(Nc1c2c(nn1-c1ccc(Cl)cc1)CS(=O)(=O)C2)C1CC1
 : i	-10.0	-1%	0.0	0.2	12	0	10	0.71
Cn1c(Cl)cnc1C(O)(c1ccccc1)c1ccccc1
 : i	0.2	?	2.0	3.7	6	-8	5	0.65
CCC(C)(C)NC(=O)CN(C(=O)CCC(=O)Nc1ccccn1)c1ccc2c(c1)OCO2
 : i	0.1	nt	-0.5	0.0	1	-2	-1	0.64
CN1C[C@H]2[C@@H](c3ccccc31)[C@@H](CO)N2C(=O)C1CC1
 : i	0.6	nt	-2.9	nt	12	nt	3	nt
C[C@H](CO)N1C[C@H](C)[C@H](CN(C)Cc2ccc(C(=O)Nc3ccccc3N)cc2)Oc2ccc(NC(=O)C3CCCCC3)cc2CC1=O
 : i	-5.5	nt	-1.6	nt	-13	nt	-8	nt
Cc1ccc2nc(-c3ccccn3)cc(C(=O)NC(C)C(C)(C)C)c2c1 (stereo not drawn)
 : i	-0.3	-13%	3.3	2.0	12	nt	7	0.72
O=C(c1cccnc1)N1C[C@H]2[C@@H](c3ccccc31)[C@H](CO)N2C(=O)Nc1ccc(F)cc1
 : i	-2.5	nt	-0.3	nt	2	nt	-1	nt
CC(C)(O)C#Cc1ccc([C@H]2[C@@H](CO)N3CCCCN(C(=O)c4ccncc4)C[C@@H]23)cc1
 : i	-6.3	nt	-4.0	nt	-3	nt	3	nt
CCC(=O)N(C)C[C@H]1Oc2ncc(-c3ccc(F)cc3)cc2C(=O)N([C@H](C)CO)C[C@@H]1C
 : i	-1.8	nt	-0.4	nt	0	nt	-4	nt
Cc1ccc(C(=O)COC(=O)c2cccc(N3C(=O)c4c(C)nc5ccccc5c4C3=O)c2)cc1C
 : i	-2.8	nt	3.3	0.0	5	-4	15	0.64

A few values from the results shown:
Under rRNA inh HTS, O=C(c1cccnc1)N1C[C@H]2[C@@H](c3ccccc31)[C@H](CO)N2C(=O)Nc1ccc(F)cc1 is entered as -1
Under rRNA inh HTS RFP, CN1C[C@H]2[C@@H](c3ccccc31)[C@@H](CO)N2C(=O)C1CC1 is entered as -2.9
Under rRNA inh HTS, C[C@H](CO)N1C[C@H](C)[C@H](CN(C)Cc2ccc(C(=O)Nc3ccccc3N)cc2)Oc2ccc(NC(=O)C3CCCCC3)cc2CC1=O is entered as -8
Under rRNA inh HTS RFP, CCC(=O)N(C)C[C@H]1Oc2ncc(-c3ccc(F)cc3)cc2C(=O)N([C@H](C)CO)C[C@@H]1C is entered as -0.4
Under E coli growth, CCC(C)(C)NC(=O)CN(C(=O)CCC(=O)Nc1ccccn1)c1ccc2c(c1)OCO2 is entered as 0.64

Not all compounds are listed; the hit share may differ from the screen's.
